Screening results (PubChem BioAssay)
Arbovirus inh: blocks arbovirus infection; AID 1251; arbovirus infection cell-based antiviral screen; actives 0.37% (n = 200,000); inhibition, % at 10 µM;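 active means inhibition from about 30%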;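 further: bluetongue infection of BSR cells; cell survival read as ATP light after 72 h; 0% = infected wells without compound and 100% = uninfected wells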
YopH PTP inh: YopH (Yersinia) phosphatase inhibition | fluorescence Ex485/Em525 | inhibition, %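 (about 10 µM by stock and volumes)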 | actives 0.16% (n = 140,000) | AID 898;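 active means inhibition of 50% or more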;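 further: controls were vehicle for no effect and minimum signal wells for full effect; inactives centre near -20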
RecA intein inh: inhibitors of M. tuberculosis RecA intein splicing. cell-free RecA intein splicing, fluorescence. inhibition, %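 (about 9 µM by stock and volumes)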. P9WHJ3. AID 2221. actives 0.75% (n = 290,000); in the data active means inhibition above about 30%; inconclusive means no clear call, values can overlap the other calls;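 further: 0% = vehicle wells and 100% = reference inhibitor control wells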
Target sequence (P9WHJ3 whole entry, looked up): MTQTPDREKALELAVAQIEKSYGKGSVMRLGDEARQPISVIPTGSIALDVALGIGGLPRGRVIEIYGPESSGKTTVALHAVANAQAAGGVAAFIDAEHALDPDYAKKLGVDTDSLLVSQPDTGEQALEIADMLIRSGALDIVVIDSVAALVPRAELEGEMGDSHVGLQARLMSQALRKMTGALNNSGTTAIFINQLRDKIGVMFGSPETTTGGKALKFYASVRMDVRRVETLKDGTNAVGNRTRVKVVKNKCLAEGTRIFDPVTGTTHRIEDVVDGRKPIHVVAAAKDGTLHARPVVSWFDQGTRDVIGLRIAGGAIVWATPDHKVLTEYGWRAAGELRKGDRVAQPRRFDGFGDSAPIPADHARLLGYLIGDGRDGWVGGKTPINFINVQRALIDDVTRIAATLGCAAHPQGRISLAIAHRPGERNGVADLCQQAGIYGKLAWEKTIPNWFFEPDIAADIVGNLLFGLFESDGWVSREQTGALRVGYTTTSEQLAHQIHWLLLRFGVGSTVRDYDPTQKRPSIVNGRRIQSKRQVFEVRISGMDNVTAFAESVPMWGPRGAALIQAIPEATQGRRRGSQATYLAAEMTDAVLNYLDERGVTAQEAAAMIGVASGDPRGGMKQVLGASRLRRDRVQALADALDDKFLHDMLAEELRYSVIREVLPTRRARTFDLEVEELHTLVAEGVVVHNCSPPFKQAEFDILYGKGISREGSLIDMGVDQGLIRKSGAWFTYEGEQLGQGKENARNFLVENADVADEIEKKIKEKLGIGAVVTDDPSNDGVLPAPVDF
Mtb growth: M. tuberculosis H37Rv growth inhibitors, H37Rv strain (AID 1626) | M. tuberculosis H37Rv growth inhibition; higher % means a stronger effect | one-dose inhibition, % at 10 µM; IC50 in µM for titrated hits | actives 0.95% (n = 220,000);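 active means confirmed in a dose series; inconclusive means inhibition above 80% but not taken into the dose series; inactive means below 80% or under 30% at every dose of the series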;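 further: bacteria incubated seven days before Alamar blue readout; 0% = bacteria only wells and 100% = bacteria with antibiotic wells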
Mtb betalactam: beta-lactam sensitization of Mtb H37Rv; actives 0.27% (n = 330,000); AID 434955; M. tuberculosis H37Rv growth with meropenem, percent inhibition; hits of this screen are not shown here; inhibition, % at 25 µM;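 active means about 74% or more and at least 40 points above the plate without the antibiotic, then above 30% in a dose series; inconclusive means first-round hits that could not be retested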;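 further: growth measured after seven days incubation then overnight dye step; 0% = bacteria only wells and 100% = bacteria with antibiotic; twin plates without the antibiotic show which effects depend on it; some results filed as inactive read as strong as hits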
Arbovirus inh repeat: also measured in Arbovirus inh; calls as there; inhibition, %; measured here: 10K subset replicate screen; many hits read low in the repeat;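 first of two repeat runs on a subset; 0% = infected and 100% = uninfected wells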
Starred values were filed as active, the others as inactive; ? = inconclusive; . = no result given. This is a subset (hit frequency here may not be typical).

SMILES	Arbovirus inh	YopH PTP inh	RecA intein inh	Mtb growth	Mtb betalactam	others
CC1(C)C(=O)NCCN1C(=O)c1ccc2nc(Cc3ccccc3F)oc2c1	.	.	-0.3	.	-6
O=C(Nc1ccc(Cl)c(Cl)c1)Nc1nc(-c2ccccc2)cs1	10	-10	0.3	0%	-1
CCCCc1c(O)nc(SCC(=O)c2ccccc2)n(-c2ccccc2C)c1=O	.	.	2.7	0%	-2
COc1ccc(N2CCN(C(=O)c3ccccc3F)CC2)c([N+](=O)[O-])c1	.	.	2.3	0%	3
Cn1c(=O)c2c(ncn2CC(=O)OCC(=O)NCc2ccccc2Cl)n(C)c1=O	4	-12	-0.8	-2%	3
COC(=O)CSc1ncccc1-c1nc2ccccc2[nH]1	-1	-25	0.2	-7%	0
Cc1cccc(Cn2nc(C)c(NC(=O)c3ccc(F)cc3)c2C)c1	-2	.	-0.8	-5%	-7
Cc1c(C(=O)NCCN2CCOC2=O)oc2c(F)cccc12	.	.	-0.2	.	8
CCOC(=O)c1ccc(N2C(=O)CC(N3CCC(O)(c4ccc(Br)cc4)CC3)C2=O)cc1 (centres undefined)	7	-27	-0.9	-2%	-9
COc1ccc(-c2nc(C)sc2C)cc1	-4	-2	-3.2	3%	-3
S=C(NCc1ccc(Cl)c(Cl)c1)NCc1ccco1	.	.	9.7	.	8
CCn1c(SCC(=O)Nc2ccc(S(N)(=O)=O)cc2)nnc1-c1cccc(OC)c1	6	-34	.	-9%	-3

Overlap with the part before: two entries; new compounds follow.
SMILES	Arbovirus inh	YopH PTP inh	RecA intein inh	Mtb growth	Mtb betalactam	others
S=C(NCc1ccc(Cl)c(Cl)c1)NCc1ccco1	.	.	9.7	.	8
CCn1c(SCC(=O)Nc2ccc(S(N)(=O)=O)cc2)nnc1-c1cccc(OC)c1	6	-34	.	-9%	-3
COC(=O)C1=C(CS(=O)(=O)c2ccccc2)NC(=O)NC1c1ccc(OC)c(OC)c1 (centres undefined)	.	.	0.2	.	2
O=[N+]([O-])c1cccnc1Oc1cccnc1	.	.	-5.8	-4%	-3
Clc1ccc(Oc2nc(Oc3ccc(Cl)cc3)nc(N3CCOCC3)n2)cc1	8	-18	3.2	22%	62
CCOc1ccc2[nH]c(=O)c(CN(Cc3ccc(F)cc3)C(=O)c3ccco3)cc2c1	-18	-23	4.5	7%	24
COC(=O)c1ccc(NC(=O)c2ccc(F)cc2)o1	-3	-37	0.8	-5%	-3
O=C(NCCOc1ccccc1)C1CCCN1C(=O)c1cccs1 (centres undefined)	-4	-34	2.2	-8%	-1
COc1cccc(/C=C/C(=O)Oc2ccc(C(=O)c3ccc(F)cc3)cc2)c1	0	-26	-0.2	30%	56
CCOC(=O)CNC1CC(=O)N(c2ccc(Br)cc2)C1=O (centres undefined)	.	.	-0.7	.	2
CC/C(=N/Nc1ccccc1)c1cnnc(-c2ccccc2)n1	-20	6	-2.0	-2%	1
Cc1ccc(-n2nc(C)cc2NC(=O)CC#N)cc1	1	.	-2.1	2%	13
CCOC(=O)c1c(CSc2ccccc2)n(C)c2cc(Br)c(OCC(O)CNC(CO)(CO)CO)cc12 (centres undefined)	-45	-47	5.8	46%	79
Nc1cccc(NP(=O)(c2ccccc2)c2ccccc2)c1	.	.	4.6	-11%	-11
Nc1c(-c2cccc(Cl)c2)cnn1-c1ccccc1	.	.	6.4	.	2
CCCc1nnc(NC(=O)CCC(=O)N2CCN(Cc3cc(F)ccc3OC)CC2)s1	.	.	-1.3	.	3
Cc1ccc(Nc2cc(C)nc(N3CCOCC3)n2)cc1	19	-26	-0.5	6%	2
CCOc1ccc(S(=O)(=O)Nc2cc(OC)c(OC)cc2C(=O)O)cc1	1	-14	0.3	-5%	-3
COC(CNC(=O)c1cnn2c(C)c(Cc3ccccc3)c(C)nc12)OC	9	.	-3.7	-1%	-9
O=C(CCc1nnc(CCC2CCCCC2)o1)NCCn1cccn1	7	.	0.2	-2%	5
CC(=O)C1=C(O)C(=O)N(c2ccccn2)C1c1cccc(F)c1 (centres undefined)	.	.	-1.3	.	?
Cc1cc(=O)oc2cc(OCC(=O)OCC(=O)NC(C)C)ccc12	4	.	.	-2%	-8
c1ccc2c(c1)nc1n2CCN1	-3	-10	-0.7	1%	-14
COc1ccc(CCNC(=O)c2cc3c(C)nccc3[nH]c2=O)cc1OC	-22	.	-4.0	4%	-3
O=C(CCn1nnc2ccccc21)Nc1nnc(COc2ccccc2F)s1	-5	0	2.7	6%	-4
O=c1[nH]ncc(NCCCO)c1Cl	10	-11	2.2	-3%	-7
COc1cccc(-c2cc(C(=O)NCC3CCCO3)c3ccccc3n2)c1 (centres undefined)	-1	-28	3.5	5%	-3
COc1cc2ccccc2cc1C(=O)Nc1ccc(N2CCN(C(=O)C(C)C)CC2)cc1	.	.	-1.9	.	-1
O=C(CN(c1cccc(Cl)c1)S(=O)(=O)c1ccc(Cl)cc1)NCc1ccccn1	.	.	2.0	.	3
CCOC(=O)N1CCN(C(=O)c2cn(CC)c3cc(N4CCN(C)CC4)c(F)cc3c2=O)CC1	-3	-38	0.9	.	-7
COc1ccc(CCNC(=O)c2ccc(N3CCCC3=O)cc2)cc1	-5	-21	-0.8	3%	-1
Cc1cc(-c2c(C)[nH]n(-c3ccc(Cl)cc3)c2=O)n(-c2ccccc2)n1	11	-31	.	-17%	-8
C#Cc1ccc([C@H]2C=C(C(=O)N3CCOCC3)O[C@@H](OCc3ccc(CO)cc3)C2)cc1	9	.	-0.8	.	-2
CCCCN(C)C(=O)c1ccc2c(c1)N(CC)C(=O)c1ccccc1S2(=O)=O	-6	-6	-0.5	-1%	0	Arbovirus inh repeat=5
COc1ccc(S(=O)(=O)N(C)CC(=O)NCc2ccco2)cc1	1	19	7.0	-13%	-1
O=c1c2ccccc2nc(N/N=C/c2ccc(O)cc2)n1O	2	-22	-6.8	.	1
CCC(=O)N1CCc2cc(S(=O)(=O)CCC(=O)N(C)c3ccc(OC)cc3OC)ccc21	.	.	-0.8	.	-3
CCN1C(N(C)CCc2cccs2)=N[C@@H](c2ccccc2)C(C(=O)OC)=C1C	.	.	5.8	.	-6
CCOc1ccc(/C=N/NC(=O)c2nnn(-c3nonc3N)c2-c2ccc(OCC)cc2)cc1	2	-22	-1.6	1%	2
Cn1c(O)c(C(=Nc2ccccc2)SCc2ccccc2Cl)c(=O)n(C)c1=O	.	.	4.3	2.2µM*	97
Cc1ccc(S(=O)(=O)N2CCN(C(=O)c3ccccn3)CC2)cc1	1	.	0.0	-7%	-4
CCC(C)(C)N(C(=O)CCC(=O)Nc1cc(C)on1)C(C(=O)NC(C)(C)C)c1ccc(OC)cc1 (centres undefined)	.	.	0.0	.	-5
COc1ccc(S(=O)(=O)Nc2ccccc2OC)cc1NC(=O)CC1CC2CCC1C2 (centres undefined)	6	-28	6.6	-4%	5
CC(C)(C)c1ccc(/C=N/NC(=O)C2CCCC2)cc1	.	.	1.5	.	1
COc1ccc(-c2nnc(SC(C)C(=O)NNC(=O)c3ccc(C)cc3)o2)cc1 (centres undefined)	-17	-15	-0.8	-5%	7
CCN1CCN(c2nc(Nc3cccc(OC)c3)nc(N)c2[N+](=O)[O-])CC1	.	.	2.9	.	4
Cc1sc(NC(=O)c2cccs2)c(C(=O)OC(C)C)c1C	-9	-9	-11	-3%	-5
CCOC(=O)c1c(NC(=O)c2ccc(N3C(=O)[C@@H]4[C@H](C3=O)[C@H]3C=C[C@@H]4C3)cc2)sc2c1CC(C)CC2 (some centres undefined)	-4	-2	-6.1	5%	7
CCCc1cc(N2CCN(c3ccccn3)CC2)n2nc(C)c(-c3ccccc3)c2n1	2	-16	-11	0%	0
CCCCc1nc(N2CCOCC2)c(C#N)c2c1COC(C)(C)C2	-4	-6	6.7	17%	17

The last 3 compounds of the section above are carried over, then new ones follow:
SMILES	Arbovirus inh	YopH PTP inh	RecA intein inh	Mtb growth	Mtb betalactam	others
CCOC(=O)c1c(NC(=O)c2ccc(N3C(=O)[C@@H]4[C@H](C3=O)[C@H]3C=C[C@@H]4C3)cc2)sc2c1CC(C)CC2 (some centres undefined)	-4	-2	-6.1	5%	7
CCCc1cc(N2CCN(c3ccccn3)CC2)n2nc(C)c(-c3ccccc3)c2n1	2	-16	-11	0%	0
CCCCc1nc(N2CCOCC2)c(C#N)c2c1COC(C)(C)C2	-4	-6	6.7	17%	17
O=C(NCCN1C(=O)S/C(=C\c2cccs2)C1=O)c1ccco1	8	.	2.3	-4%	3
O=C(C1CCC1)N1CCN(c2cccc(C(F)(F)F)c2)CC1	.	.	0.3	.	-9
COc1ccccc1CNC(=O)COC(=O)c1n[nH]c2ccccc12	1	-20	0.0	2%	-14
Cc1ccc(F)cc1NC(=O)Cc1ncc(C(F)(F)F)cc1Cl	-2	-27	0.4	-11%	3
CC(=NCc1cccnc1)c1c(O)n(C2CCCCC2)c(=O)[nH]c1=O	11	-55	-2.3	0%	-6
O=C(C1CCN(CCCc2ccccc2)CC1)N(CCc1ccccc1)Cc1ccccc1	-37	-2	3.1	22%	39
O=C(CCC(=O)N1CCCCC1)Nc1ccc(Cl)c(Cl)c1	.	.	2.0	.	69
CCOC(=O)Cn1c(CN(Cc2ccccc2)Cc2ccccc2)nc2c1c(=O)[nH]c(=O)n2C	-12	-20	0.7	-2%	5
Cc1cc(Cl)c2oc(C(=O)N(C)CCc3cnn(C)c3)c(C)c2c1	.	.	1.0	.	-3
NCCSSCCN	.	.	-3.7	-5%	-6
COc1ccc(/C=C/C(=O)N(Cc2cccs2)C2CCS(=O)(=O)C2)cc1 (centres undefined)	.	.	-0.3	4%	1
COc1cc(CN2CCCCC2C(=O)Nc2ccc(Oc3ccccc3)nc2)ccc1O (centres undefined)	.	.	-4.1	.	-3
CCOC(=O)c1cc(C(C)(C)C)nc(SC)c1C#N	.	.	3.6	1%	68
O=C(NCc1ccco1)C(c1ccncc1)N(C(=O)Cc1cccs1)c1ccccc1 (centres undefined)	6	.	1.2	15%	6
Cc1cc(C)nc(SCc2nnc(SCC#N)n2-c2cccc(Cl)c2)n1	20	-53	1.4	0%	9
COc1cc([N+](=O)[O-])cc(/C=N/NC(=O)C(C)Nc2cccc(C)c2)c1O (centres undefined)	-10	-40	5.1	-4%	-1
CCCCn1cnc2c([nH]c3cc(OC)ccc32)c1=O	5	-10	1.0	6%	8
CCc1ccccc1N(CC(=O)N1CCN(c2ccc(F)cc2)CC1)S(C)(=O)=O	0	-44	.	-1%	11
CC(Oc1ccccc1)c1ccnc(N)n1 (centres undefined)	-3	.	1.9	6%	-2
O=C(COC(=O)c1ccccn1)Nc1ccccc1OC(F)F	-3	.	.	2%	1
O=C(Nc1ccccc1C(=O)O)c1cccc(F)c1	.	-54	-0.6	0%	1
Cc1ccc(C(C)(C)C)cc1S(=O)(=O)Nc1cccc(S(=O)(=O)NC2=NCCC2)c1	3	-23	0.5	-4%	-5
O=C(Nc1ccc2nc3n(c(=O)c2c1)CCCCC3)c1cc([N+](=O)[O-])ccc1F	.	.	26	.	85
COc1ccccc1NC(=O)c1ccc(NC(=O)CN(C)Cc2ccccc2F)cc1	2	.	-1.2	11%	85

Retrieved by structure from the entries so far, four records:
SMILES	Arbovirus inh	YopH PTP inh	RecA intein inh	Mtb growth	Mtb betalactam	others
Cc1c(C(=O)NCCN2CCOC2=O)oc2c(F)cccc12	.	.	-0.2	.	8
CCOC(=O)c1cc(C(C)(C)C)nc(SC)c1C#N	.	.	3.6	1%	68
CCN1CCN(c2nc(Nc3cccc(OC)c3)nc(N)c2[N+](=O)[O-])CC1	.	.	2.9	.	4
COc1ccc(-c2nnc(SC(C)C(=O)NNC(=O)c3ccc(C)cc3)o2)cc1 (centres undefined)	-17	-15	-0.8	-5%	7

Next part
SMILES	Arbovirus inh	YopH PTP inh	RecA intein inh	Mtb growth	Mtb betalactam	others
CCN(C(=O)COC(=O)COc1ccc2c(C)cc(=O)oc2c1)C1CCS(=O)(=O)C1 (centres undefined)	9	.	-0.4	-5%	-10
CC(C)CC(NS(=O)(=O)c1cccc(C(=O)O)c1)C(=O)O (centres undefined)	12	.	-0.9	0%	12
Cc1ccc(NC(=O)CN2C(=O)NC3(CCCCC3C)C2=O)cc1S(=O)(=O)N1CCCCC1 (centres undefined)	.	.	1.0	.	-5
CC1CCN(C(=S)Nc2ccc(F)cc2)CC1	5	-11	0.1	-4%	-3
COc1cc(/C=N/NC(=O)C(N)=O)ccc1OC(=O)c1cccs1	2	.	9.9	3%	-12
CN(CCc1ccccn1)C(=O)CCC1CCCN(C(=O)NC2CCCCC2)C1 (centres undefined)	0	.	-1.0	-3%	2
O=C(COc1ccccc1Cl)NCCNC(=O)c1cnccn1	.	.	-2.5	.	-2
COc1ccc(N2C(=O)C(Cl)=C(NCc3ccccc3)C2=O)cc1	12	-23	36*	5%	33
O=C(O)C1C2C=CC(C2)C1C(=O)NCc1ccc(Cl)c(Cl)c1 (centres undefined)	-1	-14	3.0	0%	-4
